Screens from PubChem BioAssay.
UUG fidelity: modulators of yeast start codon fidelity, primary screen, whole organism, S. cerevisiae, single point, plate reader; S. cerevisiae UUG-firefly luciferase reporter, luminescence/redox ratio; activity score, % at 18.7 µM; actives 0.13% (n = 350,000);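 active means replicate mean at a twofold rise or more, about +100% in these data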;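 further: firefly luciferase made from a UUG start codon reports start codon fidelity; reporter light over untreated wells divided by growth signal over untreated wells; some hits fall short of that in this replicate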
MT1-MMP act inh: blockers of MT1-MMP proenzyme processing, primary screen, HT1080 RFP-PRO-GFP cells, GFP/RFP fluorescence; AID 651647, 2012; Matrix metalloproteinase-14 (Homo sapiens), P50281; GFP/RFP ratio change, % at 20 µM; GFP/RFP ratio fluorescence, overnight; percent of plate control window, DMSO zero; actives 0.061% (n = 360,000);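 active means GFP/RFP ratio change of at least 30% with cell ATP level not reduced by more than half and red fluorescence within 50% of control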; further: strong numbers were not always called active
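Assay system: HT1080 cells carrying an RFP-PRO-GFP reporter | Dosing: Single dose of 20 µM compound, 1% DMSO final | Incubation: Cells overnight before dosing, compound overnight, 37 °C, 5% CO2 | Evaluation: GFP/RFP fluorescence ratio | Control set: DMSO and RFP-L50D-GFP cell wells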
PABP FP inh: PABP poly(A) RNA binding inhibitors, primary screen, biochemical, fluorescence polarization, uHTS; actives 1% (n = 290,000); Polyadenylate-binding protein 1 (Homo sapiens), P11940; inhibition, % at 35 µM;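 active means 50% or more with normal probe brightness, or confirmed in later tests; inconclusive means above 50% with abnormal brightness, or retests that disagree; inactive means below 50% or failed in later tests; about a fifth of its hits are not listed in these tables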;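 further: calls also rest on retests at 20 µM and on dose response follow-up; controls were probe without protein and protein plus probe with vehicle; some compounds called inactive have numbers as strong as hits; many hits fall short of the cut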
Target sequence (P11940 whole entry, looked up): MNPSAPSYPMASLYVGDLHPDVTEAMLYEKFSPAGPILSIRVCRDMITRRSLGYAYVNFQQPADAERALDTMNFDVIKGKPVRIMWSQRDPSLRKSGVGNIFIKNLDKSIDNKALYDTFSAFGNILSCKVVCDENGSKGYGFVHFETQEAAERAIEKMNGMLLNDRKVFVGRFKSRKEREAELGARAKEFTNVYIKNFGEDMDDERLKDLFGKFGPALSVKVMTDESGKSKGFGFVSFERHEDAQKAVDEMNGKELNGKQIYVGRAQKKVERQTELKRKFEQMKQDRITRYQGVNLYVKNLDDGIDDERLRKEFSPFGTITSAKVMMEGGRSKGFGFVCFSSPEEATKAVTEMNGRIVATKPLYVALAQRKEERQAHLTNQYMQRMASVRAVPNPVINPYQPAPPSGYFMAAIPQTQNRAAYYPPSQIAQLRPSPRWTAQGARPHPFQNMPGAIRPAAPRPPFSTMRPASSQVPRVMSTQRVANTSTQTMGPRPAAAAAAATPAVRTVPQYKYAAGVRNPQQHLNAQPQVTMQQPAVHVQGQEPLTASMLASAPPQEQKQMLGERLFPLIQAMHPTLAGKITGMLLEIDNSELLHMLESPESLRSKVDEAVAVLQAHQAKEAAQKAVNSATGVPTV
HIV Env fusion: inhibitors of HIV-1 Env-driven cell-cell fusion, primary screen, HeLa-JRFL effector, CEM21 target cells, luciferase. actives 1.1% (n = 360,000). AID 651610, 2012. inhibition, % at 12.3 µM;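 active means mean replicate inhibition score of at least 50 and every replicate individually at or above 50; inconclusive means only one of the two criteria met; inactive means mean below 50 and not all replicates reaching 50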;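 further: 0% = plate neutral controls and 100% = maraviroc near 300 nM; one replicate is shown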
Rce1 inhib: yeast Rce1p protease inhibitors, primary screen, biochemical, fluorescence, cell-free homogeneous. CAAX prenyl protease 2 (Saccharomyces cerevisiae (strain ATCC 204508 / S288c)), Q03530. yeast membranes, quenched prenylated peptide cleavage fluorescence. calls only. actives 0.27% (n = 290,000). AID 2563, 2010;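 active means fall in fluorescence gain of 50% or more versus controls, with final raw signal at or below 3038400; inconclusive means same 50% fall but final raw signal above 3038400; inactive means fall in fluorescence gain under 50%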;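 further: plate controls were neutral control wells for no effect and wells lacking membranes for full effect; tested at 10 µM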
eIF4H inh: human eIF4H binding inhibitors, primary screen, translation initiation inhibitor project, biochemical, uHTS, fluorescence polarization; Eukaryotic translation initiation factor 4H (Homo sapiens), Q15056; AID 2012, 2009; eIF4H fluorescence polarization binding assay; actives 0.94% (n = 290,000); inhibition, % at 35 µM;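 active means 50% or more with normal probe brightness, or confirmed in later tests; inconclusive means above 50% with abnormal brightness, or retests that disagree; inactive means below 50% or failed in later tests; about a fifth of its hits are not listed in these tables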;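 further: calls also rest on retests at 20 µM and on dose response follow-up; 0% = protein and probe with vehicle and 100% = probe without protein; strong numbers were not always called active; many hits fall short of the cut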
CSC inhib: cancer stem cell viability inhibitors, primary screen, luminescence; AID 2717, 2010; inhibition, % at 7.5 µM; actives 1.1% (n = 300,000); cancer stem cell-like cells viability;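 active means mean at 75% or more and at least half the replicates too; inconclusive means mean and replicates disagree; tested in HMLE shEcad cells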;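 further: 0% = median of negative and 100% = median of positive control wells; the first replicate is given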
eIF4H inh retest: further read-out of eIF4H inh, marked with its call; inhibition, %; compound at 20 µM; confirmation average;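 mean of two retest wells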
PABP FP inh retest: further read-out of PABP FP inh, marked with its call; inhibition, %; compound at 20 µM; confirmation repeats;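 mean of two retest wells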
MT1-MMP act inh RFP: further read-out of MT1-MMP act inh, marked with its call; RFP signal change, %; measured here: RFP expression control read;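 0 = vehicle wells; hits needed this value within 50% of zero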
Active calls of the source: *; i = inactive; ? = inconclusive; . = not tested or not shown. This is a subset; count on the stated rates, not on these rows.

SMILES | UUG fidelity | MT1-MMP act inh | MT1-MMP act inh RFP | PABP FP inh | HIV Env fusion | Rce1 inhib | eIF4H inh | CSC inhib | others
N#C/C(=C\c1ccc(O)cc1)C(=O)O (tested in a mixture with another compound) | 2 | 5 | 5 | . | -3 | . | . | .
O=C1C2CCN(CC2)C1Cc1ccccc1O (stereo not drawn) | . | . | . | 5 | . | i | 91 | 3 | eIF4H inh retest=12;PABP FP inh retest=2
CC1=CC(=C2C(=O)NC(=S)NC2=O)C=C(C(F)(F)F)N1C | 7 | 11 | 3 | 22 | -189 | i | 38 | 2
COc1ccccc1CCNCc1cccc(C(F)(F)F)c1 | -2 | -1 | 3 | -7 | 5 | i | -5 | 0
CCC(c1nnnn1C(C)(C)C)N1CCC2(CC1)C(=O)NCN2c1ccccc1 (stereo not drawn) | 2 | 3 | 3 | . | 3 | . | . | .
CCc1ccc(CN2CCN(Cc3cc(Br)ccc3O)CC2)cc1 | . | 1 | -1 | -7 | 11 | i | 4 | 14
CNC(=O)ON(C(=O)NC)C1N(C)C(=S)SC1(C)C (stereo not drawn) | -15 | 4 | 11 | -7 | -18 | i | 4 | -3
CCOc1cccc(=NC2CCCCC2)c2c(C)[nH]c(C)c12 | 3 | 9 | -10 | ? | 9 | i | ? | 7
CCC(=O)OC1(c2ccccc2)CCN(C)CC1C (stereo not drawn) | . | -4 | 3 | 5 | 24 | . | 2 | -12
O=c1[nH]c(=S)[nH]c(O)c1N=Nc1cc(S(=O)(=O)Nc2ccc(Cl)cc2)ccc1Cl | -6 | 12 | 1 | . | -8 | . | . | .
Cc1ccc(C2N(c3cc(C)on3)C(=O)C3CCCN32)cc1 (stereo not drawn) | -17 | -5 | 0 | 0 | 13 | i | 9 | -13
O=[N+]([O-])c1cc(F)c(N2CCCCCC2)cc1N1CCNCC1 | . | -6 | -7 | -2 | 12 | i | 4 | 55
CC(=O)OC1(c2ccccc2)CC(C(C)(C)C)CN(C(C)(C)C)C1 (stereo not drawn) | . | -4 | 4 | 9 | -3 | i | -6 | -16
O=C1NCN(c2ccccc2)C12CCN(C(c1ccccc1OC(F)(F)F)c1nnnn1Cc1ccccc1)CC2 (stereo not drawn) | -8 | -1 | -12 | . | -64 | . | . | .
O=c1[nH]c2ccccc2n1C1CCN(C(c2ccccc2OC(F)(F)F)c2nnnn2Cc2ccccc2)CC1 (stereo not drawn) | -9 | -26 | -14 | . | -44 | . | . | .
Clc1cccc(N2CCNCC2)n1 | . | 0 | 6 | 2 | -10 | i | -1 | 9
COC(=O)C1=C(c2cccc(Cl)c2)C[C@@H]2CC[C@H]1N2C(=O)N1CCCC1 | -12 | 5 | 0 | . | 21 | . | . | -1
O=C(CN1CCCCC1)c1ccccc1Cl | -6 | -4 | 3 | 6 | -20 | i | -1 | 16
Cc1ccc(NP(=O)(Oc2ccccc2F)Oc2ccccc2F)cc1 | 7 | 3 | -10 | 6 | . | i | -5 | -6
CCOc1ccccc1CN1C2CCC1CC(c1ccc(C)cc1)C2 (stereo not drawn) | -25 | 2 | 1 | 2 | 2 | i | 2 | 57
CC1CCCN1CCC(C(N)=O)(c1ccccc1)c1ccccc1 (stereo not drawn) | -5 | -6 | 3 | . | 19 | . | . | .
CCCCn1c(O)c(C(C)=NCc2ccco2)c(=O)[nH]c1=O | -2 | -2 | -1 | 2 | 1 | i | -1 | -8
CC(C)c1c(CN(C)C(C)Cc2ccccc2)n(C)n(-c2ccccc2)c1=O (stereo not drawn) | -23 | -1 | -9 | . | 18 | . | . | 5
O=C(NC(=C(Cl)Cl)P(=O)(c1ccccc1)c1ccccc1)c1ccccc1 | -16 | -3 | 3 | 3 | . | i | -2 | -8
COc1ccc(CN2CCN(c3ccccc3)CC2)c(C)c1C | 1 | -1 | -3 | -8 | 11 | i | 2 | 0
Cc1c(C=O)c2ccccc2n1Cc1ccc([N+](=O)[O-])cc1 | -9 | 9 | 6 | 0 | -14 | i | 3 | -8
CCC(=NCCCn1ccnc1)c1c(O)n(-c2ccccc2)c(=O)[nH]c1=O | . | 1 | -1 | 0 | 3 | i | -3 | -9
Cc1ccc(-n2c(CNCc3ccc(F)cc3)nc3ccccc3c2=O)cc1 | -12 | -1 | 5 | 10 | -9 | i | -5 | .
c1cc2c(cc1N1CCCCC1)C1CC2CCN1 (stereo not drawn) | 3 | 4 | 8 | . | 6 | . | . | .
CC1CN=C(NCCc2ccccc2)S1 (stereo not drawn) | . | 2 | 1 | 1 | 3 | i | -1 | 4

Reprinted from the part before: two entries, then new ones.
SMILES | UUG fidelity | MT1-MMP act inh | MT1-MMP act inh RFP | PABP FP inh | HIV Env fusion | Rce1 inhib | eIF4H inh | CSC inhib | others
c1cc2c(cc1N1CCCCC1)C1CC2CCN1 (stereo not drawn) | 3 | 4 | 8 | . | 6 | . | . | .
CC1CN=C(NCCc2ccccc2)S1 (stereo not drawn) | . | 2 | 1 | 1 | 3 | i | -1 | 4
CN=C(SCc1ccccc1)c1c(O)n(C)c(=O)n(C)c1=O | 11 | 4 | 7 | -5 | -4 | i | 2 | -4
Cc1c(N=Cc2c(O)n(C)c(=O)[nH]c2=O)c(=O)n(-c2ccccc2)n1C | -11 | 3 | 3 | -5 | 8 | i | 0 | -10
O=C(CN1CCN(C(=O)COc2cccc(F)c2)CC1)Nc1ccc(Cl)c(C(F)(F)F)c1 | 12 | 2 | -10 | . | -155 | . | . | .
O=C1NC(=O)C(Cc2ccccc2)C(=O)N1 | -9 | -1 | 4 | . | -10 | . | . | .
Cc1ccnc(NC(=O)CCCc2ccc(N(CCCl)CCCl)cc2)n1 | -6 | 6 | 4 | . | 2 | . | . | .
Cc1cc(/C=C2\C(=O)NC(=S)N(C)C2=O)c(C)n1C1CCCCC1 | -9 | 6 | 6 | 3 | -3 | i | 92 | 6 | eIF4H inh retest=3;PABP FP inh retest=5
O=C1CC(=O)N(c2ccc3c(c2)OCO3)C(=O)N1 | -21 | -1 | -4 | 35 | . | i | 49 | 4
CCc1nnc(NS(=O)(=O)c2ccc(N=Cc3c(O)n(-c4ccc(Cl)cc4)c(=O)[nH]c3=O)cc2)s1 | . | -40 | 9 | -1 | -6 | i | ? | 0
Cc1cc(/C=C2\C(=O)NC(=O)N(c3ccc(Br)cc3)C2=O)c(C)n1-c1cc(C(=O)O)cc(C(=O)O)c1 | 12 | -13 | 2 | 28 | -2 | i | 46 | -6
Cc1ccc(N)c(N)c1 | -25 | 5 | 7 | . | . | . | . | 3
CCCN1CCO[C@@H]2c3cc(O)ccc3OC[C@H]21 | -9 | 3 | -2 | . | 3 | . | . | -8
O=P(O)(O)COc1ccccc1O | -8 | 4 | 3 | 15 | . | i | 1 | .
COc1ccc(C(=O)C2CCCN(Cc3ccc(C)s3)C2)c(OC)c1 (stereo not drawn) | . | -1 | 3 | -5 | -5 | i | -7 | 22
Nc1nnc(CCN2CCCCC2)s1 | -23 | 5 | 3 | 6 | . | i | -10 | .
CC1CCCC(NC(=O)COC(=O)c2cn(C)c3ccccc23)C1C (stereo not drawn) | -16 | 0 | -1 | . | 3 | . | . | -4
CCOC(=O)c1c(/N=C/c2c(O)n(-c3cccc(C)c3)c(=O)[nH]c2=O)sc2c1CCCC2 | . | -11 | -2 | -10 | 0 | i | 0 | 4
Cc1ccc(C(O)P(=O)(Oc2ccccc2)Oc2ccccc2)cc1 (stereo not drawn) | -4 | 5 | 6 | . | -21 | i | . | -9
O=[N+]([O-])c1ccc(-c2ccccc2)c([As](=O)(O)O)c1 | 16 | -3 | -3 | 2 | 5 | i | 7 | 2
N=c1c2c(n(Cc3ccc(Cl)cc3Cl)c3c1CCC3)CCCC2 | . | -13 | -30 | -11 | . | i | 2 | 16
COC(=O)C1=C(c2ccccc2)C[C@@H]2CC[C@H]1N2C(=O)NCc1ccco1 | -10 | -3 | -1 | . | -1 | i | . | -3
O=C1NC(=O)C(C/C=C/c2ccccc2)C(=O)N1 | 4 | 2 | 1 | 12 | . | i | 7 | 21
COc1ccccc1-n1c(-c2ccccc2Cl)nc2ccccc2c1=O | -5 | -7 | -6 | -5 | -89 | i | 5 | -1
O=C1c2ccccc2-n2nnc(-c3ccccc3)c2C2c3ccccc3CCN12 (stereo not drawn) | 5 | 0 | -4 | . | -7 | . | . | .
CCC(C)(C)n1nnnc1C(c1cccs1)N1CC=C(c2ccc(F)cc2)CC1 (stereo not drawn) | 6 | -7 | -5 | 9 | 96* | i | 0 | 6
C[C@@H]1CC[C@H]2[C@@H](C)C(=O)O[C@@H]3O[C@@]4(C)CC[C@@H]1[C@]32OO4 | 38 | 3 | 3 | 0 | . | i | -3 | -1
ClCCNc1nc2ccc(Cl)cc2[nH]1 | -5 | 5 | 1 | 11 | -37 | i | -4 | -11
CCCNC(=O)N1[C@H]2CC[C@@H]1C(C(=O)OC)=C(c1ccc(Cl)c(C(F)(F)F)c1)C2 | -1 | 6 | -3 | . | 23 | . | . | 17
Cc1nc2ccc(Cl)cc2c(=O)n1-c1ccccc1Cl | -11 | -3 | -3 | 12 | -9 | i | -8 | -9
O=P(Oc1ccc(Cl)cc1)(N1CC1)N1CC1 | -1 | 0 | 2 | . | 6 | . | . | .
CCC(=O)N1N=C(c2c(O)n(CCc3ccccc3)c(=O)[nH]c2=O)CC1c1ccc(OC)c(OC)c1 (stereo not drawn) | -30 | 6 | 2 | 0 | 1 | i | 18 | 3
CC(C)Cc1nnc(NC(=O)CCC(=O)N2CCN(CCOC(c3ccccc3)c3ccccc3)CC2)s1 | -1 | -3 | -3 | -5 | -19 | i | 10 | 8
CC1N=C(c2ccccc2)c2cc(Br)ccc2NC1=O (stereo not drawn) | 5 | 3 | 4 | 4 | -1 | i | 14 | -13
CN(C)C1(CNC(=O)c2cc(S(=O)(=O)N3CCOCC3)c(Cl)cc2Cl)CCCCC1 | . | 3 | 5 | . | . | i | . | -15
C=CCN1C(=O)NC(=O)/C(=C/c2ccc(N(C)C)c(Br)c2)C1=O | -9 | 2 | 3 | 3 | 0 | i | 44 | -1
Cc1cc(C)cc(N2C(=O)NC(=O)/C(=C\C=C\c3ccco3)C2=O)c1 | . | -7 | 21 | -2 | . | i | ? | 17
CCCCn1c(=O)c(C(=O)Nc2ccc(C)cn2)c(O)c2ccccc21 | -7 | 3 | 5 | 8 | . | i | -1 | -24
O=C(c1cc(F)ccc1F)C1CCCN(Cc2cc(Cl)ccc2O)C1 (stereo not drawn) | 3 | 6 | 0 | 6 | 9 | i | -1 | 10
COc1cccc(CN2CCNCC2)c1OC | -24 | -2 | 0 | 11 | -1 | i | -8 | -13
Cc1ccc(N2C(=O)NC(=O)/C(=C\c3cc(C)n(-c4sc5c(c4C#N)CCCC5)c3C)C2=O)cc1 | . | 2 | -1 | 4 | -129 | i | ? | 27
